Source: PubChem (Broad Institute)
rRNA inh HTS: inhibits bacterial ribosomal RNA function over humanized ribosomes. E. coli WT GFP vs humanized-ribosome RFP mutants, fluorescence, 24 h; hits give low values; DMSO median 0, no signal -100. GFP signal change (wild-type ribosome), % (concentration not given with the values). 1.6% of 350,000 active;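 active = significant combined selectivity score with lowered wild-type GFP, culture density cut under 30%, mutant RFP and density less affected; inactive = any of these conditions unmet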; note: one replicate is shown; some compounds called inactive have numbers as strong as hits
rRNA inh HTS OD600: also measured in rRNA inh HTS; calls as there; OD600 change, %; measured here: OD600 growth;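 optical density of the mix in the first replicate; 0 = DMSO median and -100 = no signal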
rRNA inh HTS RFP: recorded beside rRNA inh HTS, whose call it bears; RFP signal change, %; measured here: RFP humanized mutant strains;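 first replicate; 0 = DMSO median and -100 = no signal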
The depositor's hits bear a star; & = joins results of further samples. The list is partial; count on the stated rates, not on these rows.

SMILES	rRNA inh HTS	rRNA inh HTS OD600	rRNA inh HTS RFP
O=C(Nc1cc(F)ccc1F)N1C[C@H]2[C@@H](c3ccccc31)[C@H](CO)N2C(=O)c1ccccc1	5	12	-1.1
Cc1noc(C)c1NC(=O)Nc1ccc2c(c1)C(=O)N([C@H](C)CO)C[C@H](C)[C@H](CN(C)C(=O)Nc1ccc(F)cc1)O2	-2	4	0.3
C[C@@H]1CCCCO[C@@H](CN(C)CC2CCCCC2)[C@@H](C)CN([C@H](C)CO)C(=O)c2cc(NC(=O)C3CCCCC3)ccc2O1	4	7	-0.3
COc1ccc(-c2cnc3c(c2)C(=O)N([C@H](C)CO)C[C@@H](C)[C@@H](CN(C)C(=O)NC2CCCC2)O3)cc1	-1&1	0&8	0.6&-4.4
COc1ccc(C(=O)Nc2ccc3c(c2)OC[C@@H](C)N(C)C[C@H](C)[C@@H](OC)CN(C)C3=O)cc1	-3	-2	2.6
C/C=C/c1ccc2c(c1)O[C@H](CN(C)C(C)=O)[C@@H](C)CN([C@H](C)CO)S2(=O)=O	-6	-14	-2.0
Cc1noc(C)c1NC(=O)Nc1cccc2c1O[C@H](CN(C)C(=O)NC(C)C)[C@H](C)CN([C@@H](C)CO)C2=O	0	0	-1.2
CCc1ccc(OC2(C)CCN(Cc3ccc(SC)cc3)C2)cc1 (stereo unspecified)	-55	-72	-16
C[C@@H]1CN([C@@H](C)CO)C(=O)c2cc(C#Cc3ccncc3)cnc2O[C@@H]1CN(C)C(=O)CN(C)C	0	8	-1.3
CC=Cc1ccc2n(c1=O)C[C@H]1[C@H](CO)[C@@H](C(=O)NCCC)[C@@H]2N1S(=O)(=O)c1cn(C)cn1 (mixture of isomers)	-2	-2	-1.7
CCC(=O)N[C@H]1C=C[C@H](CC(=O)NCc2ccccc2OC)O[C@H]1CO	0	3	-1.2
C[C@H](CO)N1C[C@H](C)[C@H](CN(C)C(=O)CN(C)C)Oc2ncc(C#CC(C)(C)O)cc2C1=O	7	2	-5.5
N#C[C@@H]1[C@@H](c2ccc(-c3cccc(F)c3)cc2)[C@@H](CO)N1c1nc(-c2ccccc2)cs1	-1	17	1.9
CC1(Cc2ccc(S(C)(=O)=O)cc2)C(=O)Nc2ccc(Cl)cc21 (stereo unspecified)	0	0	0.9
O=C(Cc1ccccc1)N[C@H]1CC[C@@H](CC(=O)N2CCCCC2)O[C@@H]1CO	3	8	-1.9
CC(=O)NC[C@@H]1[C@@H](c2ccc(C3=CCCCC3)cc2)[C@@H](CO)N1C(=O)C1CC1	-2	-7	1.3
O=C(C[C@@H]1C=C[C@H](NS(=O)(=O)c2ccccc2)[C@@H](CO)O1)NCc1ccccc1F	0	6	-2.6
C[C@@H]1CN([C@H](C)CO)C(=O)c2c(c3ccccc3n2C)-c2ccccc2CO[C@H]1CN(C)Cc1cccc(C(F)(F)F)c1	1	8	-1.3
CCCC#Cc1cnc2c(c1)C(=O)N([C@H](C)CO)C[C@@H](C)[C@H](CN(C)C(=O)Cc1ccncc1)O2	2	9	-2.2
O=S1(=O)CCN(CCc2ccccc2)CC1	0	4	-3.1
C[C@@H]1CN([C@@H](C)CO)C(=O)c2cc(NC(=O)CCC(F)(F)F)ccc2O[C@@H](C)CCCCO[C@@H]1CN(C)C(=O)Nc1cccc2ccccc12	-4	0	-2.4
C[C@@H]1CN([C@@H](C)CO)C(=O)c2cc(NC(=O)Nc3ccccc3)ccc2O[C@@H](C)CCCCO[C@H]1CN(C)C(=O)Nc1ccccc1	1	-2	0.3
O=C1CN(S(=O)(=O)c2cccc(F)c2)C[C@H]2[C@@H](c3ccc(-c4ccc(F)cc4)cc3)[C@H](CO)N12	-7	-50	24
CN(C)CC(=O)N[C@@H]1CC[C@@H](CCNC(=O)C2CC2)O[C@H]1CO	2	-1	-1.5
COc1ccc(NC(=O)Nc2ccc3c(c2)CC(=O)N([C@@H](C)CO)C[C@@H](C)[C@@H](CN(C)C)O3)cc1	1	-3	-2.4
C[C@@H]1CCCCO[C@H](CN(C)Cc2ccc3c(c2)OCO3)[C@@H](C)CN([C@H](C)CO)C(=O)c2cc(N(C)C)ccc2O1	1	3	-0.6
C[C@H]1CN([C@@H](C)CO)C(=O)c2cc(C#Cc3ccc(F)cc3)cnc2O[C@H]1CN(C)C(=O)c1ccccc1F	-3	-10	13
CCC(=O)NC[C@H]1[C@@H](c2ccc(C3=CCCC3)cc2)[C@@H](CO)N1C(=O)CN(C)C	3	1	-0.4
COc1ccc(CCn2cnn3c(=O)c4ccccc4nc3c2=O)cc1OC	6	15	2.2
COc1cccc(CN2[C@H](CO)[C@H](c3ccccc3)C23CN(Cc2ccccc2OC)C3)c1	-1	-25	7.0
CO[C@@H]1CN(C)C(=O)c2cc(NC(=O)C3CCOCC3)ccc2OC[C@H](C)N(Cc2nccs2)C[C@@H]1C	-1	-1	-0.3
COc1cccc(S(=O)(=O)N(C)C[C@H]2Oc3ncc(-c4cccc(C(=O)N(C)C)c4)cc3C(=O)N([C@@H](C)CO)C[C@@H]2C)c1	-13	-8	-2.2
COc1ccc(-c2cnc3c(c2)C(=O)N([C@H](C)CO)C[C@@H](C)[C@@H](CN(C)C(=O)C2CCCCC2)O3)cc1	1	7	-0.8
C/C=C/c1ccc([C@@H]2[C@@H](CNC(=O)CC)N(Cc3ccccn3)[C@H]2CO)cc1	-1	2	-1.0
CCCNC(=O)N[C@@H]1C=C[C@H](CC(=O)NC2CCC2)O[C@H]1CO	6	7	0.8
CCS(=O)(=O)N1CC2(CN(C(=O)c3ccc(F)cc3)[C@H](CO)c3[nH]c4cc(OC)ccc4c32)C1	-6	-1	2.1
COc1cccc(-c2cnc3c(NC=O)cc(-c4cccc(C(=O)N(C)C)c4)cn23)c1	7	-3	-4.8
C[C@H](O)C#Cc1ccc2c(c1)O[C@H](CN(C)C(=O)Cc1ccccn1)[C@@H](C)CN([C@@H](C)CO)S2(=O)=O	1	4	-1.4
CCCN(C)C[C@H]1Oc2cc(C#Cc3ccc(OC)cc3)ccc2S(=O)(=O)N([C@@H](C)CO)C[C@H]1C	1	-9	17
CCCN1[C@@H]2c3ccc(-c4ccc(C(=O)N(C)C)cc4)c(=O)n3C[C@@H]2[C@@H](CO)[C@@H]1C(=O)NCCOC	0	-3	-0.3
CO[C@H]1CN(C)C(=O)c2cc(NS(=O)(=O)c3ccccc3)ccc2OC[C@H](C)N(C)C[C@@H]1C	1	2	0.9
CCOC(=O)[C@]12CCCC=C1N(Cc1cccc3ccccc13)C(=O)[C@H](CC(=O)N1CCN(C(=O)c3ccco3)CC1)C2	-11	-11	15
C[C@@H]1CCCCO[C@@H](CN(C)Cc2ccc(C(=O)Nc3ccccc3N)cc2)[C@@H](C)CN([C@H](C)CO)C(=O)c2cc(NC(=O)Nc3ccccc3)ccc2O1	2	4	1.2
C[C@@H]1CN([C@@H](C)CO)C(=O)Cc2cc(NC(=O)CCN3CCOCC3)ccc2O[C@H]1CN(C)S(=O)(=O)c1ccccc1	-1	1	-0.7
CCCC(=O)Nc1ccc2c(c1)C(=O)N(C)C[C@H](OC)[C@@H](C)CN(C(=O)C1CCCC1)[C@H](C)CO2	-1	1	1.3
CCc1nnc(NC(=O)c2ccco2)s1	3	13	2.7
COCC(=O)Nc1ccc2c(c1)[C@@H]1C[C@H](CC(=O)NCc3ccccc3OC)O[C@@H](CO)[C@@H]1O2	0	5	-0.5
COCC(=O)N1[C@H](C#N)[C@@H](c2ccccc2C2=CCCCC2)[C@@H]1CO	-5	-11	0.5

Copied from the entries so far for reference:
SMILES	rRNA inh HTS	rRNA inh HTS OD600	rRNA inh HTS RFP
COc1cccc(-c2cnc3c(NC=O)cc(-c4cccc(C(=O)N(C)C)c4)cn23)c1	7	-3	-4.8
C[C@H](O)C#Cc1ccc2c(c1)O[C@H](CN(C)C(=O)Cc1ccccn1)[C@@H](C)CN([C@@H](C)CO)S2(=O)=O	1	4	-1.4
CCCN(C)C[C@H]1Oc2cc(C#Cc3ccc(OC)cc3)ccc2S(=O)(=O)N([C@@H](C)CO)C[C@H]1C	1	-9	17
CCCN1[C@@H]2c3ccc(-c4ccc(C(=O)N(C)C)cc4)c(=O)n3C[C@@H]2[C@@H](CO)[C@@H]1C(=O)NCCOC	0	-3	-0.3
CO[C@H]1CN(C)C(=O)c2cc(NS(=O)(=O)c3ccccc3)ccc2OC[C@H](C)N(C)C[C@@H]1C	1	2	0.9
CCOC(=O)[C@]12CCCC=C1N(Cc1cccc3ccccc13)C(=O)[C@H](CC(=O)N1CCN(C(=O)c3ccco3)CC1)C2	-11	-11	15
C[C@@H]1CCCCO[C@@H](CN(C)Cc2ccc(C(=O)Nc3ccccc3N)cc2)[C@@H](C)CN([C@H](C)CO)C(=O)c2cc(NC(=O)Nc3ccccc3)ccc2O1	2	4	1.2
C[C@@H]1CN([C@@H](C)CO)C(=O)Cc2cc(NC(=O)CCN3CCOCC3)ccc2O[C@H]1CN(C)S(=O)(=O)c1ccccc1	-1	1	-0.7
CCCC(=O)Nc1ccc2c(c1)C(=O)N(C)C[C@H](OC)[C@@H](C)CN(C(=O)C1CCCC1)[C@H](C)CO2	-1	1	1.3
CCc1nnc(NC(=O)c2ccco2)s1	3	13	2.7
COCC(=O)Nc1ccc2c(c1)[C@@H]1C[C@H](CC(=O)NCc3ccccc3OC)O[C@@H](CO)[C@@H]1O2	0	5	-0.5
COCC(=O)N1[C@H](C#N)[C@@H](c2ccccc2C2=CCCCC2)[C@@H]1CO	-5	-11	0.5

(more compounds)
SMILES	rRNA inh HTS	rRNA inh HTS OD600	rRNA inh HTS RFP
C[C@H]1CN([C@@H](C)CO)C(=O)c2cccc(NC(=O)NC3CCCCC3)c2O[C@@H]1CN(C)Cc1ccc(C(=O)O)cc1	-2	1	-1.1
CC(=O)N1[C@H](C(=O)N2CCCCC2)[C@@H](CO)[C@@H]2Cn3c(ccc(-c4ccccc4)c3=O)[C@@H]21	4	5	-3.8
CS(=O)(=O)Nc1ccc2c(c1)[C@H]1C[C@H](CC(=O)NCc3ccc(-c4ccccc4)cc3)O[C@@H](CO)[C@H]1O2	-4	-26	3.2
COc1ccc2c3c(n(C)c2c1)[C@@H](CO)NCC31CN(C(=O)Nc2ccc(F)cc2F)C1	2	15	-0.1
C[C@H](CO)N1C[C@H](C)[C@H](CN(C)C(=O)Cc2ccncc2)Oc2cc(C3=CCCCC3)ccc2S1(=O)=O	1	1	2.2
COc1cccc(S(=O)(=O)Nc2ccc3c(c2)[C@@H]2C[C@H](CC(=O)N[C@@H](C)c4ccccc4)O[C@@H](CO)[C@@H]2O3)c1	-2	-28	3.7
COCC(=O)N1CC2(CCN(C(=O)NC(C)C)CC2)c2c(n(C)c3cc(OC)ccc23)[C@@H]1CO	1	15	-3.6
CCCNC(=O)N1[C@H](CO)[C@@H](c2ccc(-c3ccccc3)cc2)[C@@H]1CNC(C)=O	-8	-7	-0.1
CCOC(=O)C1(C)CCCN(C(=O)c2ccc3snnc3c2)C1 (stereo unspecified)	11	2	1.2
Cn1cnc(S(=O)(=O)N[C@H]2CC[C@H](CC(=O)N3CCN(c4ccccc4)CC3)O[C@@H]2CO)c1	-1	-3	2.7
CO[C@H]1CN(C)C(=O)c2cc(NC(=O)C3CCC3)ccc2OC[C@H](C)N(C(=O)CN(C)C)C[C@@H]1C	-3	-2	-3.2
O=C(C[C@H]1C=C[C@@H](NC(=O)Nc2ccccc2F)[C@H](CO)O1)NCc1ccc(-c2ccccc2)cc1	-5	1	-1.2
O=C(N[C@@H]1CC[C@@H](CCn2cc(-c3ccccn3)nn2)O[C@H]1CO)c1ccncc1	3	14	-1.7
CCN(Cc1ccccc1)c1cc2c(c3c1ccn3C)C1CCC2C1 (stereo unspecified)	-2	9	1.9
C[C@@H]1CN([C@@H](C)CO)C(=O)CCCn2nncc2CO[C@@H]1CN(C)C(=O)Nc1ccnc(N2CCOCC2)c1	9&-2	5&-5	0.1&-1.6
C[C@@H]1CN([C@@H](C)CO)C(=O)c2cc(NC(=O)Nc3cccc4ccccc34)ccc2O[C@H]1CN(C)C(=O)Nc1ccccc1	-3	-5	-1.7
C[C@@H]1CCCCO[C@@H](CN(C)C(=O)Nc2ccc(F)cc2)[C@@H](C)CN([C@H](C)CO)C(=O)c2cc(NS(=O)(=O)c3cn(C)cn3)ccc2O1	6	11	-0.3
C[C@@H]1CCCCO[C@@H](CN(C)Cc2ccc(C(=O)Nc3ccccc3N)cc2)[C@@H](C)CN([C@H](C)CO)C(=O)c2cc(NS(=O)(=O)c3ccc(F)cc3)ccc2O1	0	-7	1.0
O=C(C[C@@H]1CC[C@H](NC(=O)c2ccncc2)[C@H](CO)O1)NCCc1ccncc1	5	11	2.6
C[C@H](CO)N1C[C@H](C)[C@H](CN(C)S(=O)(=O)c2cccs2)Oc2c(NC(=O)c3ccncc3)cccc2C1=O	0	7	2.5
C[C@@H]1CCCCO[C@H](CN(C)CC2CCCCC2)[C@H](C)CN([C@H](C)CO)C(=O)c2cc(NC(=O)c3ccncc3)ccc2O1	1	3	1.6
COc1ccccc1CNC(=O)C[C@@H]1C[C@H]2c3cc(NC(=O)c4ccc5c(c4)OCO5)ccc3O[C@H]2[C@H](CO)O1	-6	-13	2.4
O=S(=O)(c1ccccc1)N1CCCCN2[C@H](CO)[C@@H](c3ccc(-c4ccccc4)cc3)[C@@H]2C1	1	3	6.3
CCCCCN(C(=O)CCC(=O)OC(C)C(=O)Nc1ccccc1C)c1c(N)n(CCCC)c(=O)[nH]c1=O (stereo unspecified)	7	9	2.3
